PV pol inh: poliovirus RdRp elongation inhibitors, primary screen, biochemical, fluorescence polarization, total intensity; Genome polyprotein (Poliovirus type 1 (strain Mahoney)), P03300; poliovirus polymerase elongation; hits give low values; % elongation, % (compound at 16.7 µg/mL); actives 0.66% (n = 150,000); AID 588519, 2011; in the data active = % elongation below about 90%; also: some results filed as inactive read as strong as hits
Target sequence (P03300 1749-2209 limits assumed): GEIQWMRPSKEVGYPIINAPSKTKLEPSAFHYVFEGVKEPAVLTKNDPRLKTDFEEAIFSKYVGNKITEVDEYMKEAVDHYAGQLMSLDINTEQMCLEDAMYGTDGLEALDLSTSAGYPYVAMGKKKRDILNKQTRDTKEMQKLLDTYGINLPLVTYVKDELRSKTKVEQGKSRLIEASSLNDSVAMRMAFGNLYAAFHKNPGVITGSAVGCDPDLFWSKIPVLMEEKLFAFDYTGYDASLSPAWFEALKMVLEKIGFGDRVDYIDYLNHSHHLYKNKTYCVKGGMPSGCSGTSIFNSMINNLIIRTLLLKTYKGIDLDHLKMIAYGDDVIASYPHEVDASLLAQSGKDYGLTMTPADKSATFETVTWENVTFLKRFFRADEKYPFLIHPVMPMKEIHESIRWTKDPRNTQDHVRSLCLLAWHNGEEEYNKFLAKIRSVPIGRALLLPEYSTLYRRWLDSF
PV pol inh intensity: second read-out of PV pol inh, no call of its own (marks repeat the call); % elongation; measured here: total intensity read-out; formula for this scale not given here;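 total fluorescence in place of polarization; lower means less elongation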
* hit, by the source's call. A portion of the library; the hit share may differ from the screen's.

SMILES	PV pol inh	PV pol inh intensity
CCOC(=O)c1c(Nc2ccc(O)cc2)nnc(-c2ccccc2)c1-c1ccccc1	107	110
Cc1nc2sc(C(N)=O)c(N)c2c(-c2ccc(Br)cc2)c1C(=O)Nc1ccc(Cl)cc1	101	100
CCCN(C(=O)NCc1noc2ccc(C)cc12)c1ccc(Cl)c(Cl)c1	108	112
Nc1c(-c2nc(-c3ccc(Cl)cc3)no2)nnn1-c1ccc(C(F)(F)F)c(Cl)c1	117	121
Cn1c(SCC(=O)Nc2nc3ccccc3s2)ncc(C(=O)Nc2ccc(F)cc2)c1=O	112	111
COc1ccc(NC(=O)c2ccco2)cc1NC(=O)c1ccc(C)c(C)c1	104	103
Cc1ccc(-c2cc(C(=O)Nc3c(C(=O)c4ccccc4)oc4ccccc34)no2)cc1F	104	105
COc1ccc(S(=O)(=O)N(CCc2ccccc2)CC(=O)Nc2ccc(C)c(C)c2)cc1OC	106	106
Cc1cc(C)cc(NS(=O)(=O)c2ccc(-n3cccn3)cc2)c1	109	110
C#CCOc1ccc(-c2nnc(Nc3cccc(C)c3)c3ccccc23)cc1	109	108
CCS(=O)(=O)c1ncc(N(Cc2cccc(F)c2)Cc2ccco2)c(C(=O)Nc2ccccc2Cl)n1	110	109
CC1CCN(c2ccc(-c3cccc(NS(=O)(=O)c4cccs4)c3)nn2)CC1	103	105
CCOc1ccc(NC(=O)Cn2c(=O)c(CNc3ccccc3)cc3cc4c(cc32)OCCO4)cc1	100	101
CCc1c(C)sc2c1CCN(Cc1ccccc1)C2c1ccccc1 (stereo not given)	112	116
COc1ccc(NC(=O)N(Cc2nnc3n2CCCCC3)c2ccc(OC)c(Cl)c2)cc1	115	116
Cn1c(=O)c2c(nc(NCc3ccccc3)n2Cc2ccccc2Cl)n(C)c1=O	105	108
Cc1csc2nc(CCNS(=O)(=O)c3ccccc3)cn12	109	116
Cc1ccc(Cl)cc1N1CCN(C(=O)C2CCCN(S(=O)(=O)c3ccc(Br)s3)C2)CC1 (stereo not given)	115	109
CCOc1ccccc1NC(=O)c1cnn2c(C(F)F)cc(-c3ccccc3)nc12	103	109
CCCSc1nc2c(c(=O)[nH]1)C(c1ccc(F)cc1F)CC(=O)N2 (stereo not given)	100	103
Cc1c(NC(=O)c2sc3ccccc3c2Cl)cccc1-c1nc2ccccc2o1	100	102
COc1ccc(-c2ccc(CCC(=O)O)n2-c2ccccc2O)cc1	105	108
Cc1cc(Nc2cccc(Cl)c2)nc2ccc(NC(=O)Cc3cccc(C(F)(F)F)c3)cc12	106	111
Cc1sc2ncn(CC(=O)N(C)c3ccc(C(C)C)cc3)c(=O)c2c1S(=O)(=O)N1CCC(C)CC1	103	104
CCOc1cc(C(=O)NCC(c2ccc(N(C)C)cc2)N2CCOCC2)cc(OCC)c1OCC (stereo not given)	109	114
CCc1ccc(-c2[nH]nc3nc(-c4ccc(OC)cc4)cc(C(=O)NCCCOC)c23)cc1	105	112
Cc1cccc(N2CCN(C(=O)c3cc4ccc5cccnc5c4[nH]3)CC2C)c1 (stereo not given)	104	103
Cc1csc2nc(COC(=O)c3ccccc3NC(=O)c3ccccc3Cl)cc(=O)n12	109	108
CCOC(=O)c1c(NC(=O)COc2cccc(C)c2C)sc(C(C)=O)c1C	107	107
CC1CCN(C(=O)CSc2nnc(-c3ccccc3Cl)o2)CC1	109	108
COc1ccc(CCNC(=O)c2ccc(Cn3c(=O)c4ccccc4n(CC(=O)C(C)(C)C)c3=O)cc2)cc1OC	111	111
CC(=O)N1CCc2c(sc3c2c(=O)n(-c2ccccc2)c(=O)n3CC(=O)Nc2cccc(C)c2)C1	101	102
COc1cccc(C(=O)NCC(c2ccc(N(C)C)cc2)N2CCc3ccccc32)c1 (stereo not given)	106	96
CCOc1ccccc1NC(=O)C(=O)NCC(c1cccnc1)N1CCN(c2ccccc2)CC1 (stereo not given)	104	110
CCN(CC)CCN(C(=O)c1ccco1)c1nc2ccc(Br)cc2s1	102	105
CCOC(=O)c1c(C)oc2ncnc(Nc3cccc(C(F)(F)F)c3)c12	110	112
CN1CCc2c(sc3c2C(=O)NC(c2ccc(OC(=O)c4ccccc4)cc2)N3)C1 (stereo not given)	87	245
Cc1ccc(SCc2nc(-c3ccc(C(=O)NCc4ccccc4Cl)cc3)oc2C)cc1	106	109
COc1cc(-c2noc(CN3CCN(c4ccccc4)CC3)n2)cc(OC)c1OC	107	105
CCOc1ccccc1CNc1ncnc2c1nc1n2CCCC1	104	110
Cc1ccc2c(c1)c1c(c(=O)n(-c3ccccc3C)c(=O)n1CC(=O)NCc1ccccc1)n2C	110	114
COc1ccc(CCNC(=O)CCS(=O)(=O)c2cc(Br)cc3c2N(C(C)=O)CC3)cc1OC	106	107
Fc1cccc(CSc2nc(NCCc3ccccc3)c3ccccc3n2)c1	105	107
O=c1cc(-c2ccccc2)n2c(SCc3c(F)cccc3Cl)nnc2[nH]1	106	111
COc1ccc(-n2c(SCC(=O)N3CCC(C)CC3)nc3c([nH]c4ccccc43)c2=O)cc1	108	115
O=C(Cn1c2ncccc2c(=O)n1-c1ccccc1)Nc1ccc(F)c(F)c1	119	119
COc1ccc(C(=O)NCC(=O)OCc2cc(=O)n3nc(C4CCCCC4)sc3n2)cc1	108	99
COCCCN1CN=C(NS(=O)(=O)c2ccc(NC(C)=O)cc2)NC1	102	101
Cc1cc(Cl)ccc1NC(=O)CN1C(=O)C(=O)c2ccccc21	108	110
CCN(CC)S(=O)(=O)c1ccc2c(c1)N(CC(=O)N(C)Cc1ccccc1)C(=O)CO2	99	101

More entries follow:
SMILES	PV pol inh	PV pol inh intensity
CCC1CCCCN1C(=O)Cn1c(=O)oc2cc(S(=O)(=O)N3CCCCC3)ccc21 (stereo not given)	106	108
Cc1ccc(NC(=O)N2CCN(c3cc(-c4noc(C)n4)ccc3C)CC2)c(C)c1	104	109
Cc1ccc(CNC(=O)CN2C(=O)CCn3nc(-c4ccccc4)cc32)cc1	100	108
Cc1cccc(N2CCN(c3cc(C)nc4c(-c5ccc(Cl)cc5)c(C)nn34)CC2C)c1 (stereo not given)	104	103
COc1ccc(C2C=C(c3ccccc3)Nc3nc(NS(=O)(=O)c4ccccc4)nn32)cc1 (stereo not given)	101	120
COc1ccc(N2CCN(S(=O)(=O)c3ccc(CC(C)C)cc3)CC2)cc1	102	107
O=C(CCC1N=C2c3ccccc3N=C(SCC(=O)NCCc3ccccc3)N2C1=O)NCc1ccc(F)cc1 (stereo not given)	104	116
Cc1nc(SCC(=O)Nc2ccc(C(=O)O)cc2)n[nH]1	106	110
CCCn1c2ccccc2c2cnn(CC(=O)NCCCN(CC)c3ccccc3)c(=O)c21	98	100
COc1ccc(NC(=O)C2=CC(c3cccs3)=NS(=O)(=O)N2C)cc1	105	106
CCOc1ccc(C(CC(=O)Nc2ccc(C(=O)OC)cc2)N2Cc3ccccc3C2=O)cc1OC (stereo not given)	111	113
CCOc1cc(C(=O)Nc2cccc(-c3nc4ccccc4o3)c2)cc(OCC)c1OCC	103	102
COc1cc(OC)cc(-c2cc3nc(C)c(CCC(=O)Nc4ccccc4OC)c(C)n3n2)c1	108	113
COc1cccc(-c2ccc3c(N)c(C(=O)Nc4cc(C(F)(F)F)ccc4OC)sc3n2)c1	111	111
O=C(CCCN1C(=O)c2cccnc2Oc2ccc(Cl)cc21)NCc1ccc(F)cc1	103	103
Cc1ccc(-n2ccnc(NCCc3ccc(S(N)(=O)=O)cc3)c2=O)cc1C	105	107
O=C(NCc1ccccc1)c1nn(-c2ccccc2)nc1CO	113	106
Cc1ccc(CNC(=O)C2CCN(C(=O)c3ccc(-n4ccc5ccccc54)s3)CC2)cc1	104	107
Cc1cccc(CC(=O)N2CC(=O)Nc3ccc(F)cc3C2c2ccccc2)c1 (stereo not given)	111	112
CCOC(=O)c1c(N)n(-c2cccc(C)c2C)c2nc3ccccc3nc12	106	105
COc1ccc(S(=O)(=O)NCCSc2nnnn2-c2ccccc2)cc1	75*	73*
Cc1cccc(-n2cnc3cc(C(=O)NCc4ccccc4Cl)ccc32)c1	101	103
O=C1CC(c2nnc(Cc3ccccc3Cl)o2)CN1c1ccccc1 (stereo not given)	101	101
CCOc1ccccc1N1CC(c2nc3ccccc3n2CCCOc2ccc(OC)cc2)CC1=O (stereo not given)	109	113
Cc1ccc2onc(CC(=O)Nc3cc(F)ccc3F)c2c1	112	115
COC(=O)c1ccc(NC(=O)C2CCN(c3ncnc4c3nc3n4CCCCC3)CC2)cc1	112	114
COc1ccccc1Nc1nn2c(=O)c3ccc(C(=O)NCc4cccs4)cc3nc2s1	109	110
Cc1ccc(NC(=O)CSc2ncnc3c2sc2ccccc23)cc1C	104	98
COC(=O)c1ccccc1NC(=O)Cn1c(=O)n(CCCCC(=O)NCc2ccc3c(c2)OCO3)c(=O)c2ccccc21	107	110
COc1ccc(Nc2ncnc3scc(-c4ccc(F)cc4)c23)cc1	94	94
Cc1ccc2oc(-c3ccc(NC(=O)c4cccc(F)c4)c(C)c3)nc2c1	98	103
COc1ccc(N2CCN(c3ccc(-c4nc(-c5cccc(C)c5)no4)cc3[N+](=O)[O-])CC2)cc1	108	105
Cn1c(=O)c2sccc2n2c(CCCC(=O)Nc3ccc(Oc4ccccc4)cc3)nnc12	113	118
Cc1ccc(NS(=O)(=O)c2ccc3c(c2)NC(=O)CCS3)cc1F	111	110
N#Cc1ccccc1NC(=O)C(=O)NCC(c1ccc2c(c1)OCO2)N1CCN(c2ccccc2)CC1 (stereo not given)	111	99
CC1CCN(c2cc3c(cc2F)c(=O)c(S(=O)(=O)c2ccc(Cl)cc2)cn3C)CC1	102	110
COc1ccc(C(=O)Nc2cccc(-c3cn4ccsc4n3)c2)cc1OC	107	108
COc1cccc(C(=O)Nc2ccccc2-c2nnc(-c3cccc(OC)c3)o2)c1	107	110
FC(F)(F)c1cc(Nc2nc3ccccc3c3nncn23)ccc1Cl	109	110
Cc1ccc(-n2nc(C(=O)NCCN(C)C)c(=O)n(C)c2=O)cc1	104	113
Cc1cc(C)c(NC(=O)CCN2CCCCC2)c(C)c1	107	109
CCOc1ccc(S(=O)(=O)N2CCN(c3cc(Cl)ccc3Cl)CC2)c2ccccc12	102	106
Cc1ccc(Cl)cc1NC(=O)c1ccc2snnc2c1	107	116
CCN(CC)CCCNC(=O)Cn1nc(N2CCN(c3ccccc3OC)CC2)ccc1=O	105	111
O=C(/C=C/c1ccccc1)Nc1cc(-c2nc3ccccc3o2)ccc1Cl	103	104
Cc1ccc(NC(=O)[C@@H](c2ccccc2)N2Cc3ccccc3C2=O)cc1F	102	104
COc1ccc(OC)c(NC(=O)c2cc(C3CC3)nc3c2c(C)nn3-c2ccc(C)cc2)c1	104	112
Cc1ccc(-n2c(=O)c3c(c4cc(C)ccc4n3C)n(CC(=O)Nc3cc(C)cc(C)c3)c2=O)cc1	112	111
CCOC(=O)c1c(-c2ccc(C)cc2)csc1NC(=O)c1cc(-c2ccc(OC)cc2)on1	105	108
O=C(CCn1ccc2cc(S(=O)(=O)N3CCCC3)ccc21)NCc1cccc(F)c1	106	108

Whole records as entered above.
Record of CCN(CC)CCCNC(=O)Cn1nc(N2CCN(c3ccccc3OC)CC2)ccc1=O → PV pol inh = 105; PV pol inh intensity = 111
Record of COc1ccc(OC)c(NC(=O)c2cc(C3CC3)nc3c2c(C)nn3-c2ccc(C)cc2)c1 → PV pol inh = 104; PV pol inh intensity = 112
Record of Cc1ccc(NC(=O)[C@@H](c2ccccc2)N2Cc3ccccc3C2=O)cc1F → PV pol inh = 102; PV pol inh intensity = 104

Following part.
SMILES	PV pol inh	PV pol inh intensity
Cn1cc(C(=O)NCCc2ccccc2)c(=O)c2cc(S(=O)(=O)N3CCCCC3)ccc21	103	104
CCc1cccc(C)c1NC(=O)CSc1nc2c(c(=O)[nH]1)CCC2	102	94
CCOc1ccccc1N(CC)C(=O)c1cc2ccc3cccnc3c2[nH]1	108	104
O=[N+]([O-])c1ccc(O)c(-c2ccnc3cc(-c4ccccc4)nn23)c1	98	100
COc1cc(CN(C(=O)Nc2ccccc2)c2ccccn2)cc(OC)c1OC	107	110
Cc1ccc(CCNC(=O)c2sc3nc4n(c(=O)c3c2C)CCCC4)cc1	99	104
CCOC(=O)c1c(NC(=O)c2ccc(Br)cc2)sc2c1CCCC2	87*	92*
COc1ccc(NC(=O)Cn2c(=O)c3cccn3c3ccccc32)cc1Cl	115	119
COC(=O)CN1C(=O)CSc2ccc(S(=O)(=O)Nc3cccc(Br)c3)cc21	102	107
COc1ccc(S(=O)(=O)c2nnn(-c3ccc(C)c(Cl)c3)c2C)cc1	102	109

Exported with values under each structure: part of the list above.
Values run as follows: PV pol inh | PV pol inh intensity
- COc1ccc(S(=O)(=O)c2nnn(-c3ccc(C)c(Cl)c3)c2C)cc1
    102 | 109
- COC(=O)CN1C(=O)CSc2ccc(S(=O)(=O)Nc3cccc(Br)c3)cc21
    102 | 107
- O=[N+]([O-])c1ccc(O)c(-c2ccnc3cc(-c4ccccc4)nn23)c1
    98 | 100
- CCc1cccc(C)c1NC(=O)CSc1nc2c(c(=O)[nH]1)CCC2
    102 | 94
- COc1cc(CN(C(=O)Nc2ccccc2)c2ccccn2)cc(OC)c1OC
    107 | 110
- CCOC(=O)c1c(NC(=O)c2ccc(Br)cc2)sc2c1CCCC2
    87* | 92*

Continued:
SMILES	PV pol inh	PV pol inh intensity
COc1ccc(CNC(=O)Cc2c(C)c3c(cc(C)c4c(C)c(C)oc43)oc2=O)cc1OC	111	114
CC(C)c1ccc(NC(=O)N2CCN(c3ccc(Cl)c(Cl)c3)CC2)cc1	120	112
CCOc1ccc(CNC(=O)c2sc3nc(C)cc(C)c3c2-n2cccc2)cc1	108	112
Cn1nc(-c2ccccc2F)c2cc(C(=O)N3CCN(c4ccccc4F)CC3)sc21	108	112
